StopGo reporter: lowers the luciferase signal of an FMDV 2A StopGo reporter. human cells with a luciferase reporter of 2A StopGo recoding; control for the full effect not named in the record. Potency, µM (series often up to 57.9 µM), inactives show at the highest dose signal change, negative = less light. hit rate 1.2% among 410,000. AID 1159524; active = well fitted falling curve with a large enough effect; inconclusive = small, poorly fitted or top-dose-only effect; inactive = no such curve, though single readings can be large or run the other way; tested in HEK293T cells; note: % is set by controls: 0 for no effect and ±100 for the full control effect; nearly all actives have a fitted effect of over 45% in size; luciferase light after 4 h
RE007 growth inh: less growth of the S. pombe RE007 Vpr strain; hit rate 0.21% among 360,000; Potency, µM (titrated, usually from 92.2 µM), for inactives: at the highest dose activity change, negative = less growth; AID 651644; S. pombe RE007 Vpr strain, BacTiter-Glo ATP luminescence, 24 h; control for the full effect not named in the record; active = well fitted falling curve with a large enough effect; inconclusive = small, poorly fitted or top-dose-only effect; inactive = no such curve, though single readings can be large or run the other way;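 note: % is set by controls: 0 for no effect and ±100 for the full control effect; nearly all actives have a fitted effect of over 50% in size; the assay follows cell death caused by Vpr and the record does not say whether a fall means rescue or toxicity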
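Fission yeast RE007 carrying one integrated HIV-1 vpr copy, seeded at OD 0.01 in PMG+AL medium with 23 nL pinned compound. Grown 24 h at 30 degrees; viability read by BacTiter-Glo luminescence after 5 min.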
SARS PLpro yeast: SARS-CoV PLP inhibition in yeast | S. cerevisiae expressing SARS-CoV PLpro, growth rescue; control for the full effect not named in the record | Potency, µM (titrated, usually from 32.9 µM), without a hit: at the top dose activity, positive = growth rescue | hit rate 0.19% among 330,000 | AID 485353; active means well fitted rising curve with a large enough effect; inconclusive means small, poorly fitted or top-dose-only effect; inactive means no such curve, though single readings can be large or run the other way; note: 0% is about no effect; nearly all actives have a fitted effect of over 55% in size; growth read by luminescence after 48 h
Numbers without * were called inactive; ? = inconclusive; [ ] = dose if it differs, or a comment. Potency is the fitted concentration of half-maximal effect. These rows are one share of the data; count on the stated rates, not on these rows.

SMILES	StopGo reporter	RE007 growth inh	SARS PLpro yeast
CCN(C[C@H]1N[C@@](C)(C(=O)OC)[C@H]2C(=O)N(Cc3ccccc3)C(=O)[C@@H]12)C(=O)c1ccc(C)cc1	-5%	3%	-1%
O=C(COc1ncnc2ccccc12)NC1CCCCC1	4%	9%	-4%
COC(=O)[C@H](CC(C)C)NS(=O)(=O)N(Cc1ccccc1)[C@@H](CC(C)C)C(=O)OC	-18%	-5%	-3%
CCCN(Cc1nnc(-c2cccs2)o1)C(=O)CN1C(=O)NC2(CCC(C)CC2)C1=O (stereo not drawn)	5%	-4%	-8%
CC(C)N(C(=O)CSc1ccc(S(=O)(=O)N2CCCCC2)cn1)c1ccccc1	?	-1%	0%
Cc1cccc(C(=O)OCC(=O)c2c(C)[nH]c3ccccc23)c1O	40%[activator]	-4%	5%
CCOc1ccc(NC(=O)CN(C)C(=O)c2ccccc2Cc2ccccc2)cc1OCC	-20%	16%	-3%
C[C@H](CO)N1C[C@H](C)[C@@H](CN(C)C(=O)Nc2ccccc2)Oc2c(NC(=O)Cc3ccccc3)cccc2C1=O	58%[activator]	1%	-7%
Cc1ccc(CNC(=O)c2cc(-c3ccccc3C)n(CC3CC(c4cccc([N+](=O)[O-])c4)=NO3)n2)cc1 (stereo not drawn)	10%	-9%	-2%
CCOC(=O)N1CCN(C(=O)/C=C/c2c(C)nn(-c3ccc(F)cc3)c2Cl)CC1	?	-14%	0%
C[C@H]1COC(=O)[C@@H](Cc2ccc(F)cc2)C/C=C\C[C@H](CC(=O)NCCO)C(=O)N1	-6%	2%	-5%
COc1ccc2sc(-c3ccccc3OC)c(-c3ccc4c(c3)OCCO4)c2c1	-18%	2%	-2%
CCC(C)NC(=O)COc1ccc(OCc2ccccc2)cc1 (stereo not drawn)	-4%	-15%	-1%
O=C(NC1CCCCCCC1)c1ccc(F)c(S(=O)(=O)N2CCOCC2)c1	-24%	0%	-2%
C#CCOCCOCCOCCNc1nc(N2CCN(C(=O)C([C@@H](C)O)n3cc([C@@H](N)CCCCN)nn3)CC2)nc(N2CCN(C(=O)[C@H](CCC(=O)O)n3cc([C@@H](N)[C@H](C)CC)nn3)CC2)n1 (stereo partly drawn)	-9%	6%	3%
C=CC[C@H](CC(=O)NCCO)C(=O)NC[C@H](OC(=O)[C@@H](CC=C)Cc1ccc(F)cc1)c1ccccc1	-13%	-4%	-37%
CC(C)(C)OC(=O)C[C@H]1C/C=C\C[C@H](CC(=O)NCCO)C(=O)NCCOC1=O	7%	5%	-1%
C=CC[C@@H](CC(=O)N(CCO)Cc1ccccc1)C(=O)N[C@@H](COC(=O)[C@H](CC=C)CC(=O)OC(C)(C)C)Cc1c[nH]c2ccccc12	-25%	1%	-4%
O=C(CNC(=O)c1ccc2c(c1)OCO2)NCCOc1ccc(Cl)cc1	2%	0%	1%
O=C(COC(=O)CCc1c[nH]c2ccccc12)Nc1ccccc1C(F)(F)F	-17%	5%	1%
O=C(NC1(Cc2ccccc2)CCN(CCCc2ccccc2)C1=O)c1ccccc1 (stereo not drawn)	1%	-5%	-8%
O=C1NC(=O)C(=Cc2coc3ccccc3c2=O)C(=O)N1	-4%	?	-2%
CCCC#Cc1ccc2c(c1)COc1c3ccccc3nn1-2	20%	-22%	-5%
O=C(OCC(=O)C12CC3CC(CC(C3)C1)C2)c1ccc(CO)cc1	0%	18%	-8%
C[C@@H]1COC(=O)[C@H](NC(=O)OCC2c3ccccc3-c3ccccc32)C/C=C\C[C@@H](CC(=O)N(CCO)Cc2ccccc2)C(=O)N1	-24%	-6%	-2%
Cc1ccccc1NC(=O)Cc1nc(COC(=O)COc2ccc(C(C)(C)C)cc2)cs1	-14%	50%	-6%
COc1cc2cnc(-c3cccnc3)cc2cc1OC	-12%	-12%	7%
NC1=NC(=O)/C(=C\c2cc([N+](=O)[O-])ccc2Cl)S1	-14%	10%	-1%
Cc1c(NC(=O)CN2C(=O)NC3(CCCCC3C)C2=O)cccc1[N+](=O)[O-] (stereo not drawn)	-14%	-7%	0%
O=C(COC(=O)CCSc1ccccc1)Nc1ccccc1	25%	-28%	-2%

Two of the compounds above, in markdown.
| Compound | StopGo reporter | RE007 growth inh | SARS PLpro yeast |
| --- | --- | --- | --- |
| O=C(COC(=O)CCSc1ccccc1)Nc1ccccc1 | 25% | -28% | -2% |
| O=C(CNC(=O)c1ccc2c(c1)OCO2)NCCOc1ccc(Cl)cc1 | 2% | 0% | 1% |

Next section:
SMILES	StopGo reporter	RE007 growth inh	SARS PLpro yeast
CC1CN(C(=O)c2cc(-c3ccncc3)nc3ccccc23)CC(C)O1 (stereo not drawn)	28%	0%	-3%
CCCCC(C(=O)OCC)C(N)Cc1ccc(F)cc1 (stereo not drawn)	12%	4%	4%
O=C1Nc2ccccc2CCc2ccccc21	1%	1%	6%
CC(C)(C)OC(=O)[C@H](CCCCN)NC(=O)c1nc[nH]c1C(=O)N[C@@H](CCCCN)C(=O)OC(C)(C)C	-3%	4%	14%
Cc1ccc(S(=O)(=O)N2CCOCC2)cc1C(=O)OCC(=O)c1ccc[nH]1	-26%	-2%	4%
CC1CCCC(C)N1C(=O)c1ccc(S(=O)(=O)N2CCCC2)cc1 (stereo not drawn)	-18%	-6%	3%
COc1ccc(CCNC(=O)c2cn3ccc(C)cc3n2)cc1OC	21%	-10%	-4%
COc1ccc(C(=O)NCC(=O)N2CC=C(c3ccccc3)CC2)cc1OC	?	4%	2%
CC(=O)c1ccc(OC(=O)CCNC(=O)c2ccccc2)cc1	-22%	-9%	-5%
O=C(CC(O)CCc1ccccc1)c1ccc(O)cc1 (stereo not drawn)	40%[activator]	3%	-18%
CC1CCCCC12NC(=O)N(CC(=O)N1CCN(S(=O)(=O)/C=C/c3ccccc3)CC1)C2=O (stereo not drawn)	-11%	7%	2%
CC1CCCN(C(=O)c2cccc(S(=O)(=O)N3CCCC3)c2)C1 (stereo not drawn)	-6%	-5%	10%
CC(Sc1ccc(Cl)cc1)C(=O)NNC(=O)c1ccncc1 (stereo not drawn)	61%[activator]	0%	2%
Cc1ccc([C@H]2C(C(=O)O)=CC[C@@H](c3ccc4c(c3)OCO4)N2S(=O)(=O)c2ccc(C)cc2)cc1	-11%	-6%	-1%
CC1CC(=O)Nc2ccccc2N1C(=O)COc1cc(Cl)ccc1Cl (stereo not drawn)	-27%	-4%	-5%
COc1ccc(S(=O)(=O)N(C)C)cc1NC(=O)CN1CCN(C(=O)C2CC2)CC1	-2%	3%	0%
C#CCSc1nnc(-c2ccc([N+](=O)[O-])cc2)o1	66%[activator]	1%	-1%
C=CC[C@@H](CC(=O)N[C@@H](CO)Cc1ccccc1)C(=O)N[C@H](COC(=O)[C@H](CC=C)CC(=O)OC(C)(C)C)Cc1ccccc1	-20%	8%	3%
COc1ccc2c(C(=O)c3ccc(C)cc3)n(Cc3ccc(C(N)=O)cc3)[n+]([O-])c2c1	38%[activator]	-1%	7%
COc1ccc(NC(C)=O)cc1S(=O)(=O)Nc1cccc(S(=O)(=O)NC2=NCCC2)c1	-14%	10%	-14%
COC(=O)C1=C(c2ccc(Cl)c(C(F)(F)F)c2)C[C@@H]2CC[C@H]1N2C(=O)N1CCC(C)CC1	?	7%	1%
CC1CCN(C(=O)CCNS(=O)(=O)c2ccc(Br)cc2)CC1	-11%	-12%	-1%
Cc1ccc(S(=O)(=O)N2CCN(C(=O)C(Cc3ccccc3)NC(=O)c3ccccc3)CC2)cc1 (stereo not drawn)	-11%	0%	-8%
Nc1cc(C(=O)OCC(=O)N2CCC(Cc3ccccc3)CC2)ccc1Cl	-18%	-7%	-5%
Nc1ccccc1C(=O)N1O[C@@H]2C=C[C@H]1CC2	-9%	-1%	-6%
CC(C)NCc1nnc(-c2ccc(Cl)cc2)o1	24%	1%	-2%
O=C(OCn1nnc2ccccc2c1=O)c1cccc(S(=O)(=O)N2CCOCC2)c1	-7%	6%	-7%
C=C1CCC(N(O)c2cc(C)on2)C(=C)CCC2C1CC2(C)C (stereo not drawn)	?	-26%	10%
CCC(CO)Oc1cc(NCc2cccc(F)c2)c2ncn(C(C)C)c2c1 (stereo not drawn)	2%	-6%	4%
Cc1occc1C(=O)Nc1cccc(S(=O)(=O)N2CCOCC2)c1	16%	-3%	0%

The closing six compounds of the section above are carried over, then new ones follow.
SMILES	StopGo reporter	RE007 growth inh	SARS PLpro yeast
Nc1ccccc1C(=O)N1O[C@@H]2C=C[C@H]1CC2	-9%	-1%	-6%
CC(C)NCc1nnc(-c2ccc(Cl)cc2)o1	24%	1%	-2%
O=C(OCn1nnc2ccccc2c1=O)c1cccc(S(=O)(=O)N2CCOCC2)c1	-7%	6%	-7%
C=C1CCC(N(O)c2cc(C)on2)C(=C)CCC2C1CC2(C)C (stereo not drawn)	?	-26%	10%
CCC(CO)Oc1cc(NCc2cccc(F)c2)c2ncn(C(C)C)c2c1 (stereo not drawn)	2%	-6%	4%
Cc1occc1C(=O)Nc1cccc(S(=O)(=O)N2CCOCC2)c1	16%	-3%	0%
CC(=O)Nc1ccc(C(=O)N/N=C/C2CC3C=CC2C3)cc1 (stereo not drawn)	3%	-3%	3%
O=C(NC(=S)N1CCCCCC1)c1cccc([N+](=O)[O-])c1	3%	3%	1%
O=C1C=C(c2ccc3c(c2)oc2ccccc23)C[C@@H](c2ccc3c(c2)OCO3)C1	1%	13%	0%
c1ccc2c(c1)CCc1c(-c3ccncc3)n[nH]c1-2	22%	-9%	0%
COc1ccc([C@H]2CC(=O)C=C(c3cc(C=O)ccc3OC)C2)cc1	4%	17%	2%
COc1ccc(CNC(=O)C2CCN(S(C)(=O)=O)CC2)c(OC)c1	-9%	-17%	-1%
CC1CCCCC1NC(=O)C(C)N1C(=O)c2ccccc2C1=O (stereo not drawn)	-6%	51%	-6%
CC(C)(C)OC(=O)N1CCC(NC(=O)c2nc[nH]c2C(=O)N2CCc3ccccc3C2)CC1	-23%	14%	-6%
COC(=O)CCC(=O)NC(=S)Nc1ccc(S(=O)(=O)N2CCCC2)cc1	5%	0%	5%
O=C(COC(=O)c1cc(S(=O)(=O)N2CCCC2)ccc1O)NCCc1ccccc1	-6%	8%	-3%
COc1ccc(C(=O)NCC(=O)OCC(=O)NC(=O)c2ccc(C(C)(C)C)cc2)cc1OC	20%	-5%	-6%
C[C@H](NC(=O)c1ccco1)C(=O)N1CCN(c2ccc(C(F)(F)F)cn2)CC1	-22%	-8%	-1%
Cc1ccc(NS(=O)(=O)c2ccc(C(C)C)cc2)cc1S(=O)(=O)N1CCOCC1	38%[activator]	-27%	-3%
COc1cc(NC(=O)c2cccc(C)c2)c(OC)cc1NC(=O)CN1CCOCC1	-2%	18%	-4%
COC(=O)[C@H](Cc1ccccc1)NC(=O)[C@@H](N)CC(=O)OCc1ccccc1	-9%	-4%	-8%
COc1cnc(-c2ccccc2)nc1Oc1ccc(Cl)cc1C	2%	14%	-1%
C#CCOCCOCCOCCNc1nc(N2CCN(C(=O)[C@H](CCCCN)n3cc(CN)nn3)CC2)nc(N2CCN(C(=O)[C@H](CCCN=C(N)N)n3cc(C(N)[C@H](C)CC)nn3)CC2)n1 (stereo partly drawn)	-6%	0%	5%
C[C@H](CO)N1C[C@H](C)[C@@H](CN(C)Cc2ccc3c(c2)OCO3)Oc2c(NC(=O)C3CC3)cccc2C1=O	59%[activator]	15%	-5%
CCC(C)Sc1cccc(-c2nc3cc(C)ccn3c2NCc2ccccc2)c1 (stereo not drawn)	-30%	-22%	-3%
CC(C)C(NC(=O)c1ccccc1)C(=O)OCn1nnc2ccccc2c1=O (stereo not drawn)	6%	-5%	2%
Cc1cc(C)c(C)c(S(=O)(=O)N2CCC(C(=O)NCCCN3CCOCC3)CC2)c1C	-19%	-12%	-3%
NNc1cc([N+](=O)[O-])cc2c1C(=O)N(Cc1ccccc1)S2=O (stereo not drawn)	46%[activator]	16%	-2%
Nc1ccc(C(=O)OCCc2ccccc2)cc1	-17%	10%	2%
COc1ccccc1C(=O)NCCC(=O)Nc1ccc(S(=O)(=O)Nc2ncccn2)cc1	-14%	2%	1%
COc1ccc(NC(=O)N(C)C[C@H]2Oc3ccc(NS(=O)(=O)c4ccc(F)cc4)cc3C(=O)N([C@H](C)CO)C[C@@H]2C)cc1	0%	-7%	8%
N#Cc1ccc(C(=O)N2CCN(C(=O)C3CCCO3)CC2)cc1 (stereo not drawn)	-17%	-29%	-1%
Cc1ccsc1CN(C)CC(=O)NCC(=O)Nc1ccc(F)c(F)c1F	23%	-5%	-9%
CN(C)CCCNC(=O)C[C@H]1C[C@H](C(=O)N2CCCCC2)[C@@]2(CCc3ccccc3)c3[nH]c4cc(-c5ccco5)ccc4c3CCN2C1=O	-27%	18%	6%
COC(=O)C1=C(c2ccc(OC(F)(F)F)cc2)C[C@@H]2CC[C@H]1N2C(=O)NC(C)C	0%	5%	1%

Screening data: PubChem, National Center for Advancing Translational Sciences (NCATS)
